# KCNQ2 inh – KCNQ2 channel blockers in CHO-K1 cells – cell-based, FluxOR thallium flux, B-score, primary screen (AID 2156). 20 min; stronger effect = lower value; only compounds with negative scores are shown here; some inactives read as strong as hits. O88943. 310,000 compounds, 1.1% hits. B-score at 10 µM;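 active means fluorescence ratio B-score at most minus 3 library SDs, with starting brightness B-score within 2 library SDs, cut at about -5.5 in these data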
# Target sequence (O88943 whole entry, looked up): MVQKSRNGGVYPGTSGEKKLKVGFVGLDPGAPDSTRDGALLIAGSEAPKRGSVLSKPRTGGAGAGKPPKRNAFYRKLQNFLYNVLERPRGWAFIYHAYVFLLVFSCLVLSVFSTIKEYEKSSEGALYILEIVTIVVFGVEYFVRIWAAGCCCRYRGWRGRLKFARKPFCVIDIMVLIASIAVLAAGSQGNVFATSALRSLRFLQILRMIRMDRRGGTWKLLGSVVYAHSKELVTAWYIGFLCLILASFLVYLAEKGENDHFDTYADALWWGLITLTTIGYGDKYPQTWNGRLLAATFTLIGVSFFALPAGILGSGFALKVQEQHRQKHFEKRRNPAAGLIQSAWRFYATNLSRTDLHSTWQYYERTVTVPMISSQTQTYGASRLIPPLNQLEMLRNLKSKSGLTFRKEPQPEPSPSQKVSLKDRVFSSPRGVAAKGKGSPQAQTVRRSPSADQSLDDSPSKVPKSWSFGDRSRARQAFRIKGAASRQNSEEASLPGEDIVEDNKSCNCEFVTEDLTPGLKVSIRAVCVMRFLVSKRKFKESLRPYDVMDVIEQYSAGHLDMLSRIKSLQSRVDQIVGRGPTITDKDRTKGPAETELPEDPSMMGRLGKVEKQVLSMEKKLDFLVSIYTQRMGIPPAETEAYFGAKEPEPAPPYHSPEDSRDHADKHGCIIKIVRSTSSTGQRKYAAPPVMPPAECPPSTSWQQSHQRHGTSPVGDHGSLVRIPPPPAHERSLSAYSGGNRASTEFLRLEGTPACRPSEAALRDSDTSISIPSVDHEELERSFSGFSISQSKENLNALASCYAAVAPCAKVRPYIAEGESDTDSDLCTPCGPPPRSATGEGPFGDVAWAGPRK
# KCNQ2 inh baseline – further read-out of KCNQ2 inh, marked with its call; B-score; measured here: initial fluorescence intensity artifact check;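 brightness before thallium and not channel activity; 0 = typical well and far values either way flag optical interference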
# Active calls of the source: *; i = inactive; & = joins results of further samples. Not all compounds are listed; the hit share may differ from the screen's.
SMILES,KCNQ2 inh,KCNQ2 inh baseline
CC(=O)NCC(=O)OCC(=O)Nc1ccc(C(C)=O)cc1,i,3.8
Cc1cc(C(=O)OCC(=O)c2cccc([N+](=O)[O-])c2)c2cccc(C)c2n1,i,0.04
N#Cc1c(NC(=O)CSc2nc(-c3ccccc3)cc(C(F)(F)F)n2)sc2c1CCC2,i,0.23
CCCCC(CC)C(=O)Oc1ccc(O)c(C(C)(C)C)c1 (stereo not drawn),i,1.3
O=C(CCC(=O)Nc1ccccc1)NNS(=O)(=O)c1ccc(Cl)cc1,i,0.04
O=C(Nc1ccccc1OC(F)F)c1oc2ccccc2c1COc1ccccc1,i,0.83
CC(C)CCNC(=O)/C=C/c1ccc(Br)cc1,i,0.87
Fc1ccc2[nH]c3c(c2c1)CN(C(=S)NCc1ccccc1)CC3,i,0.43
O=C(O)c1ccccc1NCc1cccs1,i,-1.4
CC1CCN(c2c(NCc3ccc(C(=O)NCC4COc5ccccc5O4)cc3)c(=O)c2=O)CC1 (stereo not drawn),i,-0.99
O=C1c2ccccc2C(=O)N1CCn1nc(Cl)nc1Cl,i,-0.32
COCCn1c(C)cc(C(=O)COC(=O)CNC(=O)c2ccccc2)c1C,i,0.63
Cc1ccc(N(CC(=O)NCc2ccc(F)cc2)S(=O)(=O)c2c(C)n[nH]c2C)cc1,i,-1.9
Cc1cc2ncn(C(=O)N3CCCCCC3)c2cc1C,i,-1.4
COc1ccc(-c2noc(CCC(=O)NCCc3ccccc3)n2)cc1,i,-0.43
O=C(CN1C(=O)c2ccccc2C1=O)Nc1cc(C(=O)O)cc(C(=O)O)c1,i,1.6
COc1ccc(Cc2nc(=S)[nH][nH]2)cc1Br,i,4.2
CCC(=O)Nc1ccc(S(=O)(=O)Nc2ccccn2)cc1,i,1.6
Cc1ccc(C)c(N(CC(=O)N/N=C/c2ccc(-c3ccc([N+](=O)[O-])cc3)o2)S(=O)(=O)c2ccccc2)c1,i,0.8
Nc1ccccc1SCC(=O)Nc1ccc2c(c1)OCCO2,i,-2.3
Cc1ccc(C)c(S(=O)(=O)N2CCCOC2CNC(=O)C(=O)NCc2ccco2)c1 (stereo not drawn),i,0.16
Cc1cccc2cc(CN(Cc3cccnc3)C(=O)c3cccs3)c3nnnn3c12,i,-1.8
Cc1ccccc1OCCC(=O)OCC(=O)NCCc1ccccc1,i,0.31
CCOc1cc(/C=C2\C(=O)N(Cc3ccco3)C(C)=C2C(=O)OC)ccc1O,i,0.22
CCOc1ccc(C2C(C#N)=C(N)N(N(C)C)C3=C2C(=O)CC(C)(C)C3)cc1 (stereo not drawn),i,-0.52
O=C(NCC1CCCO1)c1ccc2nc(N3CCCCC3)sc2c1 (stereo not drawn),i,-0.47
Cc1ccc(NN2C(=O)C=C(c3ccccc3)C2=O)cc1,i,-0.1
COc1ccc2oc(C(=O)NC3CCCCC3)c(C)c2c1,i,-0.62
CSC1=NC(=O)/C(=C/c2ccc(SC)cc2)S1,i,-0.08
Cc1ccc(C(C(=O)NCc2ccc(F)cc2)N(C(=O)c2csnn2)C2CC2)o1 (stereo not drawn),-8.7*,-0.31*
COc1cc(C#N)ccc1OC(=O)C1CCN(C(=O)c2ccc(F)cc2)CC1,i,1.1
Cc1cc(C)c2c(=O)[nH]c(=O)n(Cc3ccccc3)c2n1,i,0.03
Cc1ccc(O)c(-c2[nH]ncc2C(=O)c2ccc(Br)cc2)c1,i,0.02
COc1ccc(C(=O)N2CCN(c3c(C)cccc3C)CC2)cc1OC,i,0.11
O=C(Nc1ccc(-c2nc3cc(Cl)ccc3c(=O)o2)cc1)c1ccco1,i,1.6
O=C(COc1ccc(Cl)cc1Cl)NN=C1c2ccccc2-c2ccccc21,i,0.81
CC(C)CNC(=O)C(=O)NNC(=O)c1ccco1,i,2.7
O=C(NCc1ccc(Cl)cc1)C1CCN(S(=O)(=O)c2cccnc2)CC1,i,1.7
CC1(C)CC(=O)CC(=Nc2ccc(C(=O)O)cc2)C1,i,-0.24
CC(C)CC1NC(=S)N(Cc2ccccc2)C1=O (stereo not drawn),i,2.6
Cc1cccc(N2CCN(Cc3nc(-c4cccc(Cl)c4)oc3C)CC2)n1,i,0.22
Cc1cccn2c(=O)c3cc(C(=O)NC4CCCC4)n(C)c3nc12,i,0.22
COc1ccc(-c2nn(-c3ccccc3)cc2C(=O)N/N=C/c2ccc([N+](=O)[O-])o2)cc1,i,0.05
Nc1cc(Cl)nnc1Cl,i,0.48
Cn1nc(-c2ccccc2)c(-c2nc(-c3ccccc3Cl)no2)c1Cl,i,-0.04
CN1CCN(S(=O)(=O)c2cccc(C(=O)N(Cc3nnc(-c4ccc(Cl)cc4)o3)C3CC3)c2)CC1,i,-0.18
CCOc1ccc(NC(=O)CN(C2CCCCC2)S(C)(=O)=O)cc1,i,0.17
CCCn1c(SCC(=O)Nc2cccc(C)n2)nc2c1c(=O)n(C)c(=O)n2C,i,-0.04
COc1ccc(-n2nc(C(=O)NCC(=O)NCc3cccc(F)c3)c3ccccc3c2=O)cc1Cl,i,1.7
Cc1cc2[nH]c(=O)c(=O)[nH]c2cc1S(=O)(=O)Nc1cccc(Cl)c1,i,1.1

# New compounds follow
SMILES,KCNQ2 inh,KCNQ2 inh baseline
CCOc1ccc(S(=O)(=O)N(CC)CC(=O)NCc2cccnc2)cc1,i,2.5
CC(C)Oc1cccc(C(=O)NC(=S)Nc2cccc(NC(=O)c3ccccc3Cl)c2)c1,i,0.03
Cc1cccc(C)c1NC(=O)CN(C)C(=O)c1cccc(S(=O)(=O)N2CCN(c3ccccc3)CC2)c1,i,-0.99
Cc1ccc(C(=O)Nc2cccc(C(F)(F)F)c2)cc1NC(=O)c1nccn1C,i,0.39
CN1CCN(c2ccccc2NC(=O)c2ccc(N3CCOCC3)c([N+](=O)[O-])c2)CC1,i,0.67
Cc1cc2c3c(c1C)C1(C(=O)N3C(C)(C)CC2C)C(C#N)=C(N)OC2=C1C(=O)CC(C)(C)C2 (stereo not drawn),i,-0.05
Cc1cc(NC(=O)COC(=O)C(C)Oc2ccc(Cl)cc2Cl)no1 (stereo not drawn),i,0.29
O=C1Nc2ccccc2C12Nc1ccccc1S2 (stereo not drawn),i,-0.38
Cc1c(NC(=O)c2noc3c2CCc2ccccc2-3)c(=O)n(-c2ccccc2)n1C,i,-0.38
CCCCOC(=O)c1cccc(NC(=O)CC)c1,i,0.82
COc1cccc(-c2cc(C(F)(F)F)nc(N3CCN(c4ccccc4)CC3)n2)c1,i,-0.07
COc1ccc(C(CC(=O)c2ccc(C)cc2)Nc2ccc([N+](=O)[O-])cc2)cc1 (stereo not drawn),-6.9*,-1.7*
COc1ccccc1N(CC(O)CN1CCCC1)S(=O)(=O)c1ccccc1 (stereo not drawn),i,-0.28
CC(=O)/C(=N/Nc1cccc(Cl)c1)N1CCOCC1,i,0.57
CCN(CC)S(=O)(=O)c1ccc(N2CCOCC2)c(NC(=O)CCOc2ccccc2)c1,i,-0.01
CCn1cc(C2=NCCO2)c2ccccc21,i,1.3
Cc1cc(C)c(S(=O)(=O)N2CCOC2CNC(=O)C(=O)NCc2cccnc2)c(C)c1 (stereo not drawn),i,-0.3
Cc1ccc(C(=O)NCCC2=CCCCC2)cc1S(=O)(=O)N1CCCCC1,i,-1.3
CC12CCC(C(=O)NCc3ccc(Cl)cc3)(OC1=O)C2(C)C (stereo not drawn),i,0.3
CC(C)(C)/C(O)=C/c1nc2cc(Cl)ccc2oc1=O,i,-1.8
COC(=O)c1ccccc1NC(=O)CC(=O)Nc1ccccc1C(=O)OC,i,-0.44
COc1ccc(NC(=O)Nc2ccc(F)cc2F)c(C)c1,i,0.39
COCCSc1nnc(NC(=O)C2CC(=O)N(CCc3ccc(F)cc3)C2)s1 (stereo not drawn),i,0.24
CCc1cc(C(=O)OC)c(NC(=O)CCC(=O)O)s1,i,1.9
Cc1cccc(C(=O)N/N=C/C(C)Cc2ccc3c(c2)OCO3)c1 (stereo not drawn),i,1.1
O=c1[nH]cnc2scc(-c3ccc(F)cc3)c12,i,1.8
CCOC(=O)C1=C(CC)OC(N)=C(C#N)C1c1ccc(F)cc1F (stereo not drawn),i,-0.59
N#Cc1ccc(-c2cccnc2)nc1SCC(N)=O,i,0.65
COCCN1Cc2cccc(C(=O)Nc3cc(C)cc(C)c3)c2C1=O,i,-0.13
O=C(CSc1c2c(nc3ccccc13)CCC2)N1CCCC1,i,0.61

# Complete entries as entered above.
# Results for N#Cc1ccc(-c2cccnc2)nc1SCC(N)=O : KCNQ2 inh = i; KCNQ2 inh baseline = 0.65
# Results for COC(=O)c1ccccc1NC(=O)CC(=O)Nc1ccccc1C(=O)OC : KCNQ2 inh = i; KCNQ2 inh baseline = -0.44
# Results for O=C(CSc1c2c(nc3ccccc13)CCC2)N1CCCC1 : KCNQ2 inh = i; KCNQ2 inh baseline = 0.61

# Going on with the list:
SMILES,KCNQ2 inh,KCNQ2 inh baseline
O=C(CSc1nnc(CNC(=O)c2ccc(F)cc2)o1)c1ccccc1,i,0.99
COc1cccc(NC(=S)N2C3CCCC2CC(NC(=O)C2CC2)C3)c1 (stereo not drawn),i,0.78
CC(=O)N1CCN(c2ccccc2NC(=S)NC(=O)c2cc3ccccc3o2)CC1,i,1.1
CCOC(=O)CNC(=O)c1sc2nc(C)cc(C)c2c1N,i,-0.51
C/C(O)=C(\C#N)c1nc2ccccc2[nH]1,i,-1.6
O=C(CSc1nnc2c3ccccc3c3ccccc3c2n1)Nc1ccccc1F,i,0.5
COc1ccc(C(=O)C2CCN(CC(=O)Nc3cc(C)cc(C)c3)CC2)cc1,i,0.42
CC/C(C)=N/NC(=S)NCc1ccco1,i,0.09
Fc1ccc(CNCc2ccc(Br)cc2)cc1,i,1.2
CCCCNc1cc(C)nc(N2CCOCC2)n1,i,1.5
C[C@H](NC(=O)NCc1cccs1)C(=O)O,i,1.1
CCOC(=O)c1cnn(-c2ccccc2)c1NC(=O)c1cccs1,i,-0.07
COC(=O)c1c(N2C(=O)CCC2=O)sc2c1CCCC2,i,0.49
CCCC[C@@H]1CN=C(N)N1CCc1cc(C(F)(F)F)cc(C(F)(F)F)c1,i,-1.9
CN1CCC2(CC1)C1CN(C)CC=C1C(C#N)=C(N)C2(C#N)C#N (stereo not drawn),i,4.5&3.2
CCc1ccc(NC(=O)CCCn2nc(CC)n3c(cc4occc43)c2=O)cc1,i,1.8
O=C(COC(=O)Cc1ccc(F)cc1)Nc1cc(S(=O)(=O)N2CCOCC2)ccc1N1CCCC1,i,2.9
O=C(c1ccccc1)N1CCCC(C(=O)N2CCN(c3ccccc3)CC2)C1 (stereo not drawn),i,0.93
CCCN(Cc1ccccc1)C(=S)Nc1ccc(OCC)cc1,i,-0.31
CCCCn1nnc(NC(=O)C(c2ccccc2)c2ccccc2)n1,i,1.1
N#Cc1nc(COc2ccc(-c3ccccc3)cc2)oc1NCCCN1CCOCC1,i,0.87
O=C(CN1CCCCCC1)Nc1ccc(S(=O)(=O)N2CCCCC2)cc1,i,-1
Cc1nn(C(C)C(=O)NCc2ccco2)c(=O)c2nn(-c3ccccc3)c(C)c12 (stereo not drawn),i,2.3
CC(=O)Nc1ccc(S(=O)(=O)n2cnc3cc(C)c(C)cc32)cc1,i,0.56
CCCCCCCCCCOC(=O)NC1CCS(=O)(=O)C1 (stereo not drawn),i,-0.59
CCOc1ccc(NC(=O)CC2C(=O)N(CC)C(=S)N2CCN2CCOCC2)cc1 (stereo not drawn),i,2.3
O=C(NCc1ccc2c(c1)OCO2)c1c(O)c2cccc3c2n(c1=O)CCC3,i,-0.02
CCc1ccc(NC(=O)CSc2nc(N)c(NC(=O)c3ccc(F)c(F)c3)c(=O)[nH]2)cc1,i,-0.59
CCc1c(C)nc2cc(-c3ccc(OC)c(OC)c3)nn2c1N1CCCC1,i,-0.17
COc1ccc(S(=O)(=O)N(C)CC(=O)NCCN2CCOCC2)cc1C,i,-1.4

# 6 compounds out of the list above, arranged by the value under KCNQ2 inh baseline, falling.
SMILES,KCNQ2 inh,KCNQ2 inh baseline
CCOc1ccc(NC(=O)CC2C(=O)N(CC)C(=S)N2CCN2CCOCC2)cc1 (stereo not drawn),i,2.3
N#Cc1nc(COc2ccc(-c3ccccc3)cc2)oc1NCCCN1CCOCC1,i,0.87
CC(=O)Nc1ccc(S(=O)(=O)n2cnc3cc(C)c(C)cc32)cc1,i,0.56
O=C(NCc1ccc2c(c1)OCO2)c1c(O)c2cccc3c2n(c1=O)CCC3,i,-0.02
CCc1c(C)nc2cc(-c3ccc(OC)c(OC)c3)nn2c1N1CCCC1,i,-0.17
CCCCCCCCCCOC(=O)NC1CCS(=O)(=O)C1 (stereo not drawn),i,-0.59

# The list goes on:
SMILES,KCNQ2 inh,KCNQ2 inh baseline
CC(=O)N1CC2(C)CN(C(C)=O)CC(C)(C1)C2,i,0.22
CC(=O)Nc1ccc(S(=O)(=O)N2CCN(c3cc(C)ccc3C)CC2)cc1,i,-2
Cc1ccc(N(C(=O)c2ccc(CN3CCOCC3)o2)C(C(=O)NCCC(C)C)c2cccs2)c(C)c1 (stereo not drawn),i,0.15
CCCC(=O)c1ccc(O)cc1O,i,-0.48
O=C(O)COc1ccc2oc3ccccc3c2c1,i,-0.04
CCOC(=O)C1=C(CN2CCSCC2)NC(=O)NC1c1ccc2c(c1)OCO2 (stereo not drawn),i,1.6
O=C(O)Cc1cc(C(=O)Nc2ccc(Br)cc2)sc1-c1ccccc1,i,0.06
CSc1nnc(C)c(=O)n1COC(=O)COc1ccc(F)cc1,i,0.64
CC(C)Cn1c(N)c(C(=O)CCl)c(=O)n(C)c1=O,i,-2.9
O=C(NCCCc1ccccc1)c1ccc(CS(=O)Cc2ccc(Cl)cc2)o1 (stereo not drawn),i,-0.92
Cn1cc(S(=O)(=O)N2CCCC2)cc1C(=O)NCCc1ccccc1,i,-1.3

# Source: PubChem BioAssay (Johns Hopkins Ion Channel Center)
